LANA-H2B inh – blockers of LANA interaction with H2A/H2B – biochemical, FP readout, HTS, primary screen; Protein LANA1 (Human herpesvirus 8 type P (isolate GK18)), Q9QR71; cell-free LANA-H2A/H2B peptide, fluorescence polarization; inhibition, % (test concentration not listed); 320,000 tested, 0.6% active; AID 2629, 2010; in the data active = inhibition mostly above about 10%, no sharp cut-off; inactive = mostly below about 6.7%;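 also: stock transfer was 7.5 nL into about 10 µL; 0% = median of vehicle wells and 100% = median of positive control wells; one replicate is shown; the record names a cut of 25% in any replicate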
Target sequence (Q9QR71 whole entry, looked up): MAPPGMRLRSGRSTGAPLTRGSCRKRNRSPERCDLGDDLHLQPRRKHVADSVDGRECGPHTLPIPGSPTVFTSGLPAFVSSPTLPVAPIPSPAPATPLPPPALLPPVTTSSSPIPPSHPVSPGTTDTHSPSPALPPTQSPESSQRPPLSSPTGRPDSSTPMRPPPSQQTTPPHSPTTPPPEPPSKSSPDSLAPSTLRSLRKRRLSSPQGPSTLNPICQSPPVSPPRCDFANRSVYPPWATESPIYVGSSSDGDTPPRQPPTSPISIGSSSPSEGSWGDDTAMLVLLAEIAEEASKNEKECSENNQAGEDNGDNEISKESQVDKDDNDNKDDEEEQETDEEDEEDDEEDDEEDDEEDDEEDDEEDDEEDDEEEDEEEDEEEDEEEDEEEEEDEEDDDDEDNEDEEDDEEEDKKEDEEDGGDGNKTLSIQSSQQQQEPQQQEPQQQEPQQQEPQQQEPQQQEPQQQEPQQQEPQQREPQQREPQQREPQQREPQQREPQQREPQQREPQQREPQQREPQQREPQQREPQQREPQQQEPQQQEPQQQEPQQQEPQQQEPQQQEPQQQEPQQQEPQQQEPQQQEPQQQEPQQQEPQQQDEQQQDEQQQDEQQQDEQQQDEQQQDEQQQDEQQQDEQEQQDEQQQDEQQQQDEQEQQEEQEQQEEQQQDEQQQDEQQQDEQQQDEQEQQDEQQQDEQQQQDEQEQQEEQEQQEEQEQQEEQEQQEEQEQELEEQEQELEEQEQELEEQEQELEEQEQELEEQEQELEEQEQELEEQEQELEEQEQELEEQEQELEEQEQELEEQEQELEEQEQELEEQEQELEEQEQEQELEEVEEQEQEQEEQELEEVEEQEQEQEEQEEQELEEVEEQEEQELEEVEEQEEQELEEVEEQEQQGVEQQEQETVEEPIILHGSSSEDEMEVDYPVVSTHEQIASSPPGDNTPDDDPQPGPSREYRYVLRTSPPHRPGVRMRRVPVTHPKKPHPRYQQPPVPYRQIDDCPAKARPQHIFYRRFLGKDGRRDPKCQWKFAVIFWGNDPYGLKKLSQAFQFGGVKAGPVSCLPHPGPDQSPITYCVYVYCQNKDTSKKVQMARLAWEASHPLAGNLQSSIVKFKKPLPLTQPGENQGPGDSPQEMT
ALR inh – inhibitors of human ALR sulfhydryl oxidase, primary screen, biochemical, H2O2 detection, HRP-luminol luminescence, single point | 290,000 tested, 3.8% active | AID 485317, 2010 | purified ALR, DTT oxidation | inhibition, % (no concentration beside the values) | FAD-linked sulfhydryl oxidase ALR (Homo sapiens), P55789;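 active = mean and each replicate at 75% or more; inconclusive = only one of the two met; inactive = neither met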;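 also: stock transfer was 7.5 nL into about 7.5 µL; 0% = neutral wells and 100% = wells with inactivated enzyme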
A1 inh – caspase 3/7 activation in MEF A1-2A-BIM cells, primary screen, A1 inhibitor project, cell-based, luminescence, HTS; Caspase-Glo 3/7 luminescence, 3 h; percent of clofoctol response, vehicle zero; AID 2462, 2010; 330,000 tested, 0.066% active; caspase activation, % (no concentration beside the values);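 active = over half of replicate activation scores above 10%, or exactly half above 10 with the replicate mean above 10; inconclusive = replicate mean below 10 yet half the replicates above 10; inactive = over half of replicates below 10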;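 also: wells of about 30 µL received 50 nL stock; many hits fall short of the cut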
Beta cell apopt – inhibitors of cytokine-induced beta cell apoptosis, primary screen, luminescence; AID 435005, 2010; protection from apoptosis, % (concentration not given with the values); 300,000 tested, 0.8% active; INS-1E cytokine-induced death, ATP luminescence, 48 h; percent of positive-control rescue, neutral wells zero;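 active = all replicates at 75% or more, or half of them and the mean; inconclusive = half reach 75% but not the mean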;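 also: 0% = cytokine-treated negative control wells and 100% = positive control rescue; higher means more ATP so stronger rescue from cytokine killing; wells of about 40 µL received 100 nL stock; the first replicate is given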
T cruzi inh – inhibitors of intracellular T. cruzi growth, primary screen, luminescence, NIH3T3 host cells. T. cruzi beta-gal in NIH3T3, 90 h. inhibition, % (no concentration beside the values). 300,000 tested, 1.4% active;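 active = mean inhibition across valid replicates above about 55%, limit read from the data; inconclusive = mean below that limit but half or more replicates reach it; inactive = mean below it, under half of replicates reach it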;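 also: signal also drops with host cell toxicity which is not excluded here; 0% = plate median of DMSO wells and 100% = zero luminescence signal; higher percent means less beta-gal luminescence so fewer parasites; stock transfer was 50 nL into about 50 µL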
Beta2AR agonist – beta2AR agonists driving receptor internalization, primary screen, cell-based, FAP fluorogen, flow cytometry | response, % (concentration not given with the values) | Beta-2 adrenergic receptor (Homo sapiens), P07550 | Am2.2-beta2AR cells; reference of the scale not given here | 340,000 tested, 0.43% active;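 active = response above a set limit, near 3 SD of response in nonfluorescent compounds, cut at about 42% in these data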;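 also: stock transfer was 100 nL into about 11 µL; a reference agonist was the positive control; negative values mostly stem from fluorescent compounds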
rRNA inh HTS – reduced GFP signal of wild-type E. coli, primary screen, bacterial rRNA inhibitor project, GFP/RFP fluorescence, OD600, single point | GFP signal change (wild-type ribosome), % (test concentration not listed) | 350,000 tested, 1.6% active | E. coli WT GFP vs humanized-ribosome RFP mutants, 24 h; active compounds read low; DMSO median 0, no signal -100;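 active = significant combined selectivity score with lowered wild-type GFP, culture density cut under 30%, mutant RFP and density less affected; inactive = any of these conditions unmet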; also: one replicate is shown; some compounds called inactive have numbers as strong as hits
Calb FLC – C. albicans growth inhibition with fluconazole, primary screen, CaCi-2 strain, Alamar Blue fluorescence; C. albicans CaCi-2 (fluconazole-resistant clinical isolate) + fluconazole, 48 h; growth inhibition, % (concentration not given with the values); 300,000 tested, 0.57% active;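 active = most replicates above 75%; inconclusive = exactly half above 75%; inactive = most below 75%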;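 also: all wells also contain fluconazole at 8 µg/ml as a sub-toxic cotreatment; 0% = median of DMSO wells and 100% = median of geldanamycin control wells; wells of about 8 µL received 7.5 nL stock; the first replicate is given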
rRNA inh HTS OD600 – also measured in rRNA inh HTS; calls as there; OD600 change, %; measured here: OD600 growth;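 optical density of the mix in the first replicate; 0 = DMSO median and -100 = no signal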
rRNA inh HTS RFP – also measured in rRNA inh HTS; calls as there; RFP signal change, %; measured here: RFP humanized mutant strains;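 first replicate; 0 = DMSO median and -100 = no signal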
The depositor's hits bear a star; ? = inconclusive; · = not tested or not shown. Only part of the results is shown; the hit share may differ from the screen's.

Second line of a record – LANA-H2B inh	ALR inh	A1 inh	Beta cell apopt	T cruzi inh	Beta2AR agonist	rRNA inh HTS	rRNA inh HTS OD600	rRNA inh HTS RFP	Calb FLC
> CSc1ccccc1C(=O)Nc1ccc2c(c1)OCO2
 : 0.2	-3	-1.3	5	-8	-10	8	10	4.8	-28
> Cc1cnc(C(=O)NCc2ccc(F)cc2)cn1
 : -0.1	-22	0.4	-5	5	-1	6	3	-0.1	-1
> CC(C)OCCCNC(=O)c1cc2c(=O)n(C)c3ccccc3c2n1C
 : -1.6	-12	-0.4	4	5	6	-7	-1	-1.2	10
> CN1CCN(S(=O)(=O)c2ccc(NC(=O)Cc3cccs3)cc2)CC1
 : 2.2	-8	0.1	2	-7	-3	·	·	·	-13
> O=S1(=O)C=C(SCc2cccc(Cl)c2)Nc2ccccc21
 : -6.8	-1	1.5	0	17	0	·	·	·	4
> CCn1c(SCc2nc(-c3ccccc3)no2)nnc1-c1cccs1
 : -0.7	0	1.5	1	-12	-14	·	·	·	14
> O=C(NC1CCCCC1)c1cccc(COCC(F)(F)F)c1
 : -2.0	-7	-2.4	-4	2	-4	·	·	·	24
> CCC(c1nnc(SCC(=O)Nc2ccc(C(=O)Nc3ccccc3OC)cc2)o1)N(C)C (stereo not drawn)
 : -5.6	99*	-1.7	0	17	-11	·	·	·	-11
> CCOc1ncccc1C(=O)OCC(=O)c1ccc(F)cc1
 : -7.6	-16	0.7	-1	15	-5	0	3	-5.7	-1
> Cc1nn(C(=O)c2c([N+](=O)[O-])cnn2C)c(C)c1Cl
 : -57	-6	-1.0	-2	-10	9	·	·	·	8
> Clc1ccc(Nc2c3c(nc4ncnn24)CCC3)cc1
 : 3.1	1	1.1	2	·	-1	-8	-14	-2.4	10
> CCCC(=O)Nc1nc(C)c(-c2csc(Nc3ccccc3OC)n2)s1
 : -1.3	-18	-0.6	4	12	12	-4	11	5.3	11
> Cc1ccc2c(c1)nnn2C1CCN(C(=O)C23CC4CC(CC(C4)C2)C3)CC1
 : -4.9	-12	-1.0	1	35	0	·	·	·	-21
> CCOC(=O)C1=C(C)N=c2s/c(=C\c3ccc(OCC(=O)O)cc3)c(=O)n2C1c1ccccc1OC (stereo not drawn)
 : 1.3	-3	-0.2	-7	-1	3	-7	0	-2.0	-7
> CC(C)C(=O)NN(C(=O)C(C)C)c1nc2ccccc2s1
 : 4.7	95*	0.6	-2	-13	-18	1	3	-3.2	-14
> CN(CC(=O)Nc1ccc(Cl)cc1)c1ccc(S(=O)(=O)N2CCCCC2)cc1[N+](=O)[O-]
 : 1.8	-14	1.2	0	35	12	·	·	·	-6
> N/C(=N\S(=O)(=O)c1cccs1)c1ccccc1
 : 2.1	-4	1.6	-7	-2	0	·	·	·	-4
> Cc1ccc(CNC(=O)C2CC3Cn4c(nc5cc6ccccc6cc54)C3N2C)o1 (stereo not drawn)
 : 3.5	-1	0.4	1	3	3	12	17	-0.9	-22
> CC1Cc2ccccc2N1C(=O)C1CC(=O)N(c2ccccc2)C1 (stereo not drawn)
 : 11	-6	-1.7	-5	-7	-2	2	-2	0.7	-1
> CCCNC(=O)c1ccc2c(c1)CCN2S(C)(=O)=O
 : -6.3	1	-0.6	·	-9	7	2	5	1.0	-25
> Cc1cccn2c(CN3CCCN(C=O)CC3)c(C(=O)N(C)CCc3ccccc3)nc12
 : -0.9	·	0.3	0	-1	-1	15	6	3.8	-2
> O=C(c1cc2cc(Br)ccc2oc1=O)N1CCCC1
 : -5.4	-4	1.3	-9	-6	-4	·	·	·	-20
> COc1cccc(NC(=O)c2cn(C)c(=O)c3cc(OC)c(OC)cc23)c1
 : -1.2	16	0.5	-2	-9	-3	·	·	·	-7
> CCOC(=O)c1c(C=O)c2ccccc2n1CC
 : 0.9	-12	0.5	-6	-3	1	-6	-6	0.9	27
> COc1ccc2c3c(cccc13)OCC2=O
 : -6.1	-40	-0.3	-2	1	11	·	·	·	-2
> Cc1cc(C)cc(-n2cc(C(=O)O)c(=O)cc2C)c1
 : -2.9	-6	0.3	-7	-7	-2	-6	3	1.2	30
> Cc1cc(C)n(-c2nc3c(c(=O)[nH]c(=O)n3C)n2C(C)C)n1
 : 0.6	-3	0.3	1	-11	-7	·	·	·	15
> c1ccc(CCn2nnnc2C(c2cccs2)N2CCOCC2)cc1 (stereo not drawn)
 : 1.8	-1	0.1	-5	-10	-1	·	·	·	3
> Cc1ccc(N=C2NC(=O)CS2)cc1
 : 1.4	-2	0.2	-1	-5	-6	·	·	·	-17
> Cc1cccc(C)c1NC(=O)C1c2cccc[n+]2CC(=O)N1Cc1ccc2c(c1)OCO2 (stereo not drawn)
 : -3.8	-25	-0.3	5	3	0	11	10	1.8	-13

Part of the list above in order of length of the SMILES, ascending.
Second line of a record – LANA-H2B inh	ALR inh	A1 inh	Beta cell apopt	T cruzi inh	Beta2AR agonist	rRNA inh HTS	rRNA inh HTS OD600	rRNA inh HTS RFP	Calb FLC
> CCn1c(SCc2nc(-c3ccccc3)no2)nnc1-c1cccs1
 : -0.7	0	1.5	1	-12	-14	·	·	·	14
> CC1Cc2ccccc2N1C(=O)C1CC(=O)N(c2ccccc2)C1 (stereo not drawn)
 : 11	-6	-1.7	-5	-7	-2	2	-2	0.7	-1
> Cc1cccc(C)c1NC(=O)C1c2cccc[n+]2CC(=O)N1Cc1ccc2c(c1)OCO2 (stereo not drawn)
 : -3.8	-25	-0.3	5	3	0	11	10	1.8	-13

(cont.)
Second line of a record – LANA-H2B inh	ALR inh	A1 inh	Beta cell apopt	T cruzi inh	Beta2AR agonist	rRNA inh HTS	rRNA inh HTS OD600	rRNA inh HTS RFP	Calb FLC
> CC(C)COP(=O)(c1ccc(N(C)C)cc1)C(O)c1ccccc1F (stereo not drawn)
 : 3.5	-6	-0.5	-7	5	2	·	·	·	23
> Cc1ccc(C)c(C2=CSC3=NS(=O)(=O)CCN23)c1
 : -2.3	-16	-0.5	1	6	5	·	·	·	0
> O=S(=O)(Nc1cccnc1)c1ccc(Br)c2ccccc12
 : 5.0	-15	-0.6	·	-11	7	1	6	1.4	63
> Cc1nc2sc(C(c3ccccc3)N3CCN(C)CC3)c(O)n2n1 (stereo not drawn)
 : -8.4	-4	0.3	1	-14	-1	-3	2	-3.1	29
> COc1ccc(Cl)cc1C(=O)N1CCN(c2ccccn2)CC1
 : 0.8	-7	-0.1	-16	-1	52*	·	·	·	0
> Oc1ccc(C[C@H]2CNCCN2CC2(c3ccccc3)CC2)cc1
 : -3.0	15	1.2	-3	-16	26	9	6	5.3	-14
> COc1cccc(NC(=O)COC(=O)c2ccccc2SCC(=O)N2CCCC2)c1
 : -1.1	-12	-0.2	-3	-4	5	0	-7	3.7	10
> Cc1cc(OCCOc2cccc3cccnc23)cc(C)c1Cl
 : 1.8	·	-2.6	-10	5	-18	·	·	·	-5
> N#Cc1c(SCC(=O)N2CCOCC2)nsc1SCC(=O)N1CCOCC1
 : -0.7	-4	0.0	-3	-7	2	·	·	·	-1
> O=C(Nc1cccc(C(F)(F)F)c1)C1CCN(S(=O)(=O)c2cccnc2)CC1
 : 6.5	-4	-2.2	3	17	3	-2	-5	1.9	-1
> CCCCOc1ccc(-c2n[nH]c(=S)n2Cc2ccccc2)cc1
 : 5.2	-16	?	6	31	-1	1	4	1.8	-5
> CCOC(=O)c1cn(Cc2ccc(C)cc2)nn1
 : ·	·	1.8	-1	-5	9	·	·	·	0
> COCCCNS(=O)(=O)c1cccc(S(=O)(=O)c2cccc(S(=O)(=O)NCCCOC)c2)c1
 : -5.4	-2	1.6	-2	6	13	11	12	2.8	5
> O=C(NC(=S)Nc1ccc(NC(=O)c2ccco2)cc1)c1ccccc1
 : 5.1	-1	0.8	0	-9	-9	7	16	11	-1
> O=C(CNS(=O)(=O)c1ccccc1)N1CCN(C(=O)c2ccco2)CC1
 : 4.3	-10	0.1	·	-2	-9	7	10	1.1	0
> Cc1ccccc1N1CCN(C(=S)c2ccc([N+](=O)[O-])cc2)CC1
 : 0.8	-15	-0.4	-5	11	8	·	·	·	-14
> CC(Sc1nnnn1C)C(=O)Nc1ccccc1-c1ccccc1 (stereo not drawn)
 : 1.4	·	0.8	-1	8	1	5	6	-4.0	?
> COc1ccc(CNCc2ccccc2[N+](=O)[O-])cc1OC
 : -5.7	-13	-0.1	0	-1	6	8	5	-0.6	2
> CN(C)CC/C=C1\c2cc(Cl)ccc2Sc2cc(F)c(F)cc21
 : -1.6	3	0.0	3	21	3	-48	-32	-11	-5
> CCOc1ccc(N(CC(=O)NC2CCCC2)C(=O)CCC(=O)Nc2nccs2)cc1
 : 3.0	·	1.1	2	10	-5	5	17	-3.6	1
> COC(=O)c1cn(C(=O)c2ccccc2)c2ccccc12
 : -2.8	-5	0.0	1	-5	-1	-2	13	-3.9	-18
> COc1ccc2c(c1)c1nc(SCC(C)C)n(CCO)c(=O)c1n2C
 : 1.6	6	-0.5	-3	6	-4	5	6	-3.1	1
> Cc1cc2cc(CNC(=O)c3ccc(S(=O)(=O)N4CCCC4)cc3)ccc2n1C
 : 0.3	-25	0.5	-2	-1	-2	3	5	37	-1
> O=[N+]([O-])c1ccc(COc2cccc(CNc3ccc(Br)cc3)c2)cc1
 : -3.1	-12	0.8	-2	0	3	·	·	·	5
> COc1ccc(CCN(C)C(=O)CN2C(=O)c3ccccc3S2(=O)=O)cc1OC
 : 3.3	-4	-0.9	4	2	0	·	·	·	-7
> CCOC(=O)N1CCC(NC(=O)CS(=O)(=O)Cc2nc(-c3cccc(OC)c3)oc2C)CC1
 : 2.0	99*	-0.7	5	5	2	·	·	·	-2
> CCn1nc(C)c(NC(=O)c2cc(Br)ccc2Cl)c1C
 : -0.4	-1	0.9	8	-7	2	-3	6	8.9	6

High-throughput results deposited in PubChem by several laboratories.
